FGF22 binding: shifts melting point of recombinant human FGF22. recombinant FGF22 thermal shift, SYPRO orange fluorescence; percent of sucrose octasulfate shift, DMSO zero. calls only at 9.99 µM. 340,000 compounds, 1.5% hits. AID 651658;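 active = melting point raised past a set limit in the mean and every replicate; three in four hits are not shown here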
Target sequence (Q9HCT0 whole entry, looked up): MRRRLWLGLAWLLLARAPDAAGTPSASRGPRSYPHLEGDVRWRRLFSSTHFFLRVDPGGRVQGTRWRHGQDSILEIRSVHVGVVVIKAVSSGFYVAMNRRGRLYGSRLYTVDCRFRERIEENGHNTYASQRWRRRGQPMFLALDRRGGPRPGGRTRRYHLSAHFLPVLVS
Calls only.

`Cc1noc(C)c1NC(=O)Nc1ccc2c(c1)C(=O)N([C@@H](C)CO)C[C@H](C)[C@@H](CN(C)C(=O)Nc1cccc3ccccc13)OCCCC[C@@H](C)O2` gave FGF22 binding inactive.
Screening COc1ccc(C2=CN(Cc3ccccc3)C(c3ccc(OC)cc3)CC2=O)cc1 (configuration not stated) returned FGF22 binding inactive.
For CN(C)C(=O)C[C@@H]1C[C@@H]2c3cc(NC(=O)Nc4ccccc4)ccc3O[C@@H]2[C@H](CO)O1 the results were FGF22 binding inactive.
Screening COCCNC(=O)C[C@@H]1C[C@@H]2c3cc(NS(=O)(=O)c4ccc(F)cc4)ccc3O[C@@H]2[C@H](CO)O1 returned FGF22 binding inactive.
For CCC(=O)N1[C@@H]2c3ccc(-c4ccccc4)c(=O)n3C[C@@H]2[C@@H](CO)[C@@H]1C(=O)N(C)C the results were FGF22 binding inactive.
Screening CC(C)C#Cc1ccc2c(c1)O[C@@H](CN(C)C(=O)CC1CC1)[C@@H](C)CN([C@@H](C)CO)S2(=O)=O returned FGF22 binding inactive.
`COc1ccc(Cn2c(C)c(CC(=O)Nc3ccc(Oc4cccnc4)c(C)c3)c3ccccc32)cc1` gave FGF22 binding inactive.
For C/C=C/c1ccc([C@H]2[C@H]3CN(C(=O)Nc4ccc(F)cc4)CC(=O)N3[C@H]2CO)cc1 the results were FGF22 binding inactive.
Screening C[C@@H]1CN([C@H](C)CO)C(=O)c2cc(NC(=O)C3CCCCC3)ccc2O[C@@H](C)CCCCO[C@H]1CN(C)C(=O)Cc1ccccc1 returned FGF22 binding inactive.
O=C(c1ccc(F)cc1)N1C[C@@H]2N[C@H](C1)C2c1ccc(-c2ccccc2F)cc1 (some centres not stated) was read as FGF22 binding inactive.
For Cc1[nH]c2ccccc2c1CC(=O)Nc1ccc(Nc2cccnc2)c(-c2cccc(Cl)c2)c1 the results were FGF22 binding inactive.
`C[C@H](CO)N1C[C@H](C)[C@H](CN(C)Cc2ccc(C(F)(F)F)cc2)OCCCC[C@H](C)Oc2ccc(NC(=O)Nc3cccc4ccccc34)cc2C1=O` gave FGF22 binding inactive.
Screening COCC(=O)Nc1ccc2c(c1)C(=O)N(C)[C@H]1CC[C@H](CC(=O)O)O[C@@H]1CO2 returned FGF22 binding inactive.
`Cc1noc(C)c1S(=O)(=O)Nc1ccc2c(c1)C(=O)N([C@@H](C)CO)C[C@@H](C)[C@H](CN(C)CC1CC1)OCCCC[C@H](C)O2` gave FGF22 binding inactive.
`CC(=O)Nc1ccc2c(c1)C(=O)N(C)[C@H]1CC[C@@H](CC(=O)N3CCc4ccccc4C3)O[C@@H]1CO2` gave FGF22 binding inactive.
For Nc1[nH]c(C(=O)c2ccccc2)c(-c2cccc3ccccc23)c1C(=O)NC1CCCCC1 the results were FGF22 binding inactive.
`O=C(N[C@H](C(=O)N1CCC[C@H]1C(=O)NC1CCCC1)c1ccccc1)c1ccccc1` gave FGF22 binding inactive.
`C[C@@H]1CCCCO[C@@H](CN(C)CC2CC2)[C@H](C)CN([C@H](C)CO)C(=O)c2cc(NC(=O)Nc3ccc(C(F)(F)F)cc3)ccc2O1` gave FGF22 binding inactive.
For CC[C@H](NC(=O)[C@@H](Cc1ccccc1)NC(=O)[C@H]1O[C@@H](n2ccc(=O)[nH]c2=O)[C@H](O)[C@@H]1O)c1ccccc1 the results were FGF22 binding inactive.
`CNC(=O)C[C@@H]1CC[C@H]2[C@H](COc3ccc(NC(=O)c4ccc5c(c4)OCO5)cc3C(=O)N2C)O1` gave FGF22 binding inactive.
Screening CC(C)=CCN1C(=O)[C@]2(OCCC=C[C@H]2C)c2c(Br)cccc21 returned FGF22 binding inactive.
Screening COc1ccc(CN(C)C(=O)[C@@H](Cc2ccccc2)NC(=O)[C@H]2O[C@@H](n3ccc(N)nc3=O)[C@H](O)[C@@H]2O)cc1OC returned FGF22 binding inactive.
CCNC(=O)Nc1ccc2c(c1)C(=O)N(C)[C@H]1CC[C@H](CC(=O)Nc3ccccc3F)O[C@@H]1CO2 was read as FGF22 binding inactive.
Screening CN1CCN(C(=O)C[C@@H]2C[C@@H]3c4cc(NC(=O)Nc5ccccc5)ccc4O[C@@H]3[C@@H](CO)O2)CC1 returned FGF22 binding inactive.
For C[C@@H]1CCCCO[C@H](CN(C)C(=O)Nc2ccc3c(c2)OCO3)[C@H](C)CN([C@@H](C)CO)C(=O)c2cc(NS(=O)(=O)c3ccc(F)cc3)ccc2O1 the results were FGF22 binding inactive.
Screening C[C@@H]1CCCCO[C@H](CN(C)C(=O)NC2CCCCC2)[C@@H](C)CN([C@@H](C)CO)C(=O)c2cc(NS(C)(=O)=O)ccc2O1 returned FGF22 binding inactive.
Screening Cc1ccccc1-c1cnc2c(c1)C(=O)N([C@@H](C)CO)C[C@@H](C)[C@H](CN(C)C(=O)c1ccccc1)O2 returned FGF22 binding inactive.
Screening CN(C)C(=O)C[C@@H]1CC[C@H]2[C@@H](COC[C@@H](O)CN2C(=O)C2CCCC2)O1 returned FGF22 binding inactive.
CCCNC(=O)C[C@H]1C[C@H]2c3cc(NC(=O)c4cccnc4)ccc3O[C@H]2[C@H](CO)O1 was read as FGF22 binding inactive.
Screening C[C@@H]1CN([C@@H](C)CO)C(=O)c2cc(NC(=O)CCC(F)(F)F)ccc2O[C@@H](C)CCCCO[C@H]1CN(C)C(=O)c1ccncc1 returned FGF22 binding inactive.
For C[C@H](CO)N1C[C@H](C)[C@H](CN(C)S(=O)(=O)c2cn(C)cn2)OCCCC[C@H](C)Oc2ccc(NC(=O)Nc3ccc(C(F)(F)F)cc3)cc2C1=O the results were FGF22 binding inactive.
For CC(=O)Nc1ccc2c(c1)C(=O)N(C)[C@H]1CC[C@H](CC(=O)NC3CCCCC3)O[C@@H]1CO2 the results were FGF22 binding inactive.
Screening CN1C(=O)c2cc(NC(=O)Nc3ccccc3F)ccc2OC[C@@H]2O[C@H](CC(=O)O)CC[C@H]21 returned FGF22 binding inactive.
`Cc1noc(C)c1NC(=O)N(C)C[C@@H]1Oc2ccc(NS(=O)(=O)c3cccs3)cc2CC(=O)N([C@H](C)CO)C[C@H]1C` gave FGF22 binding inactive.
Screening CCCC#Cc1ccc([C@H]2[C@@H](CO)N3CCCCN(Cc4cccnc4)C[C@H]23)cc1 returned FGF22 binding inactive.
C[C@@H]1CN([C@@H](C)CO)C(=O)c2cc(NC(=O)c3ccncc3)ccc2O[C@@H](C)CCCCO[C@@H]1CN(C)Cc1ccc2c(c1)OCO2 was read as FGF22 binding inactive.
Screening C[C@@H]1CCCCO[C@H](CN(C)C(=O)Nc2cccc3ccccc23)[C@@H](C)CN([C@H](C)CO)C(=O)c2cc(NC(=O)CCC(F)(F)F)ccc2O1 returned FGF22 binding inactive.
`COc1ccc(NC(=O)N(C)C[C@H]2OCCCC[C@@H](C)Oc3ccc(NS(=O)(=O)c4ccc(OC)cc4)cc3C(=O)N([C@@H](C)CO)C[C@@H]2C)cc1` gave FGF22 binding inactive.
For Cc1ccc2nc(CN(C)C(=O)[C@@H](Cc3ccccc3)NC(=O)[C@H]3O[C@@H](n4ccc(=O)[nH]c4=O)[C@H](O)[C@@H]3O)[nH]c2c1 the results were FGF22 binding inactive.
COC(=O)C[C@@H]1CC[C@H]2[C@@H](COC[C@H](O)CN2CCC(F)(F)F)O1 was read as FGF22 binding inactive.
`Cc1cc(Nc2cccc(Br)c2)cc(=O)n1-c1cccc(Br)c1` gave FGF22 binding inactive.
For C[C@H](CO)N1C[C@H](C)[C@H](CN(C)Cc2ccc(C(F)(F)F)cc2)OCCCC[C@H](C)Oc2ccc(NS(C)(=O)=O)cc2C1=O the results were FGF22 binding inactive.
Cc1ccccc1-c1ccc(C2[C@H]3CNC[C@@H]2N3S(=O)(=O)c2ccccc2)cc1 (some centres not stated) was read as FGF22 binding inactive.
`COc1ccc(NC(=O)N(C)C[C@H]2OCCCC[C@@H](C)Oc3ccc(NS(=O)(=O)c4c(C)noc4C)cc3C(=O)N([C@H](C)CO)C[C@H]2C)cc1` gave FGF22 binding inactive.
Screening C[C@@H]1CCCCO[C@@H](CN(C)Cc2ccncc2)[C@@H](C)CN([C@@H](C)CO)C(=O)c2cc(NC(=O)Nc3ccc(F)cc3)ccc2O1 returned FGF22 binding inactive.
For O=C(Nc1ccc2c(c1)[C@@H]1C[C@H](CC(=O)N3CCOCC3)O[C@@H](CO)[C@@H]1O2)C1CCC1 the results were FGF22 binding inactive.
`COCC(=O)Nc1ccc2c(c1)C(=O)N(C)[C@@H]1CC[C@H](CC(=O)NCc3ccccc3Cl)O[C@H]1CO2` gave FGF22 binding inactive.
Screening COc1ccc(S(=O)(=O)Nc2ccc3c(c2)C(=O)N([C@@H](C)CO)C[C@@H](C)[C@H](CN(C)Cc2ccc(Cl)c(Cl)c2)OCCCC[C@@H](C)O3)cc1 returned FGF22 binding inactive.
`CC(C)C(=O)Nc1ccc2c(c1)C(=O)N(C)[C@H]1CC[C@H](CC(=O)Nc3cccc(F)c3)O[C@@H]1CO2` gave FGF22 binding inactive.
`C[C@@H]1CCCCO[C@@H](CN(C)S(C)(=O)=O)[C@@H](C)CN([C@@H](C)CO)C(=O)c2cc(NS(C)(=O)=O)ccc2O1` gave FGF22 binding inactive.
CCCNC(=O)Nc1ccc2c(c1)C(=O)N(C)[C@@H]1CC[C@H](CC(=O)O)O[C@@H]1CO2 was read as FGF22 binding inactive.
`CN1CCCCC(NC(=O)c2cccc(C(F)(F)F)c2)C1=O` (configuration not stated) gave FGF22 binding inactive.
O=C(C[C@@H]1CC[C@H]2[C@@H](COC[C@@H](O)CN2C(=O)c2ccccc2)O1)Nc1ccccc1 was read as FGF22 binding inactive.
COCC(=O)Nc1ccc2c(c1)OC[C@@H](C)N(Cc1cccnc1)C[C@@H](C)[C@@H](OC)CN(C)C2=O was read as FGF22 binding inactive.
C[C@@H]1CCCCO[C@H](CN(C)C(=O)Nc2cccc3ccccc23)[C@@H](C)CN([C@@H](C)CO)C(=O)c2cc(NC(=O)CCC(F)(F)F)ccc2O1 was read as FGF22 binding inactive.
Screening C[C@@H]1C=CCCO[C@]12C(=O)N(Cc1ccccc1C(F)(F)F)c1cccc(Br)c12 returned FGF22 binding inactive.
`COC(=O)C1=C(C)N(Cc2ccc(F)cc2)C(=S)NC1c1cccc(F)c1` (configuration not stated) gave FGF22 binding inactive.
C[C@@H]1CN([C@H](C)CO)C(=O)c2cc(NC(=O)C3CCCCC3)ccc2O[C@@H](C)CCCCO[C@H]1CN(C)Cc1ccc(C(F)(F)F)cc1 was read as FGF22 binding inactive.
For C[C@H]1CCCCO[C@H](CN(C)Cc2ccc(C(=O)O)cc2)[C@@H](C)CN([C@@H](C)CO)C(=O)c2cc(NS(=O)(=O)c3ccccc3)ccc2O1 the results were FGF22 binding inactive.
For COC(=O)C[C@@H]1C[C@@H]2c3cc(NC(=O)Nc4ccc(F)cc4)ccc3O[C@@H]2[C@@H](CO)O1 the results were FGF22 binding inactive.
`C[C@@H]1CN([C@@H](C)CO)C(=O)Cc2cc(NS(=O)(=O)c3cn(C)cn3)ccc2O[C@@H]1CN(C)C(=O)NC1CCCCC1` gave FGF22 binding inactive.
`CCC(=O)N1C[C@@H](O)COC[C@@H]2O[C@@H](CC(=O)NCc3cc(F)cc(F)c3)CC[C@H]21` gave FGF22 binding inactive.
`C#CCC1c2ccccc2CCN1CC=C` (configuration not stated) gave FGF22 binding inactive.
For C[C@H](CO)N1C[C@H](C)[C@H](CN(C)S(=O)(=O)c2ccc(F)cc2)Oc2c(NS(=O)(=O)c3ccccc3)cccc2C1=O the results were FGF22 binding inactive.
For C[C@H](CO)N1C[C@H](C)[C@H](CN(C)CC2CCCCC2)OCCCC[C@H](C)Oc2ccc(NC(=O)CCC(F)(F)F)cc2C1=O the results were FGF22 binding inactive.
For CN1c2ccc(-c3ccccc3F)cc2[C@@H]2[C@@H](CCN2C(=O)c2cccc(F)c2)[C@@H]1CO the results were FGF22 binding inactive.
Screening COc1cccc(C(=O)Nc2ccc3c(c2)C(=O)N(C)[C@@H]2CC[C@H](CC(=O)NCc4ccc(F)cc4)O[C@H]2CO3)c1 returned FGF22 binding inactive.
For C[C@H](O)[C@@H]1C(=O)N2CCc3c([nH]c4c(-c5ccccc5)cccc34)[C@@H]2C[C@@H]1N(C)C(=O)Nc1cccc2ccccc12 the results were FGF22 binding inactive.
COc1ccc(S(=O)(=O)Nc2ccc3c(c2)C(=O)N([C@@H](C)CO)C[C@@H](C)[C@H](CN(C)C(=O)Nc2cccc4ccccc24)OCCCC[C@@H](C)O3)cc1 was read as FGF22 binding inactive.

In the list so far, these contain an aryl methoxy group:
Screening COc1ccc(C2=CN(Cc3ccccc3)C(c3ccc(OC)cc3)CC2=O)cc1 (configuration not stated) returned FGF22 binding inactive.
`COc1ccc(Cn2c(C)c(CC(=O)Nc3ccc(Oc4cccnc4)c(C)c3)c3ccccc32)cc1` gave FGF22 binding inactive.
Screening COc1ccc(CN(C)C(=O)[C@@H](Cc2ccccc2)NC(=O)[C@H]2O[C@@H](n3ccc(N)nc3=O)[C@H](O)[C@@H]2O)cc1OC returned FGF22 binding inactive.
`COc1ccc(NC(=O)N(C)C[C@H]2OCCCC[C@@H](C)Oc3ccc(NS(=O)(=O)c4ccc(OC)cc4)cc3C(=O)N([C@@H](C)CO)C[C@@H]2C)cc1` gave FGF22 binding inactive.
`COc1ccc(NC(=O)N(C)C[C@H]2OCCCC[C@@H](C)Oc3ccc(NS(=O)(=O)c4c(C)noc4C)cc3C(=O)N([C@H](C)CO)C[C@H]2C)cc1` gave FGF22 binding inactive.
Screening COc1ccc(S(=O)(=O)Nc2ccc3c(c2)C(=O)N([C@@H](C)CO)C[C@@H](C)[C@H](CN(C)Cc2ccc(Cl)c(Cl)c2)OCCCC[C@@H](C)O3)cc1 returned FGF22 binding inactive.
Screening COc1cccc(C(=O)Nc2ccc3c(c2)C(=O)N(C)[C@@H]2CC[C@H](CC(=O)NCc4ccc(F)cc4)O[C@H]2CO3)c1 returned FGF22 binding inactive.
COc1ccc(S(=O)(=O)Nc2ccc3c(c2)C(=O)N([C@@H](C)CO)C[C@@H](C)[C@H](CN(C)C(=O)Nc2cccc4ccccc24)OCCCC[C@@H](C)O3)cc1 was read as FGF22 binding inactive.

Screening data: PubChem BioAssay, Broad Institute

This is a subset; count on the stated rates, not on these rows.
